GALR2 ag = GALR2 receptor agonists, primary screen, cell-based; Galanin receptor type 2 (Homo sapiens), O43603; GALR2-expressing cells, agonist activation read-out; activation, %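 (tested at 5 µM)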; actives 0.48% (n = 140,000); AID 803, 2007;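 active = above mean plus 3 SD of all compounds, about 5% in these data, not always enough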;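 also: 0% = vehicle buffer wells and 100% = reference agonist at full effect; tested in CHO reporter cells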
Target sequence (O43603 whole entry, looked up): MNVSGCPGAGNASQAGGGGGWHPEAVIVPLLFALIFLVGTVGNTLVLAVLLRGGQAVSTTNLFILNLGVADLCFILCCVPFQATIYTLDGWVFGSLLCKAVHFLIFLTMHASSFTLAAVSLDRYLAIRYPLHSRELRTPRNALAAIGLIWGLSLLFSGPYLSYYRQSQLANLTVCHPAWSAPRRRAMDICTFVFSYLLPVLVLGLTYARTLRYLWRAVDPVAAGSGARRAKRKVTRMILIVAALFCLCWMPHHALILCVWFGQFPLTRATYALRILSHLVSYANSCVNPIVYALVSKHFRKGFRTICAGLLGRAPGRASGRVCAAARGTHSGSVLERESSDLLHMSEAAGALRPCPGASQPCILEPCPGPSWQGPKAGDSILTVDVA
INS promoter inh = inhibitors of insulin promoter-driven GFP, primary screen, imaging, TRM-6 cells (human fetal islet line), eGFP reporter, cell count; reporter expression induced with tamoxifen; actives 0.9% (n = 130,000); inhibition, % at 2 µM; AID 1273, 2008;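 active = inhibition above the mean plus 3 SD, with well images judged a real hit on visual review, cut at about 60% in these data, passing the limit was not always enough; inconclusive = inhibition over the cutoff but images rejected on review; inactive = inhibition not above the cutoff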
HSV replic up = enhancers of HSV replication in host cells, fold increase, host cell viability. HSV replication augmentation in cells. maximum fold increase. actives 0.005% (n = 220,000);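 active = peak rise of 1.5-fold or more in the series; inconclusive = self-fluorescent or not available for retest; tested in PC3 cells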;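 also: first round at 10 µM; read as green reporter fluorescence; hits show the peak of a series up to 25 µM; 1 = signal of infected wells without compound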
PKD1 inh = inhibitors of human PKD1 kinase, biochemical, fluorescence polarization; PKD1 kinase fluorescence polarization assay; inhibition, %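 (about 10 µM by stock and volumes)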; actives 0.056% (n = 200,000); AID 797, 2007;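 active = inhibition of 50% or more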;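 also: controls were vehicle for no effect and a reference inhibitor for full effect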
RGS16-Gao HTS = modulators of RGS16 binding to Galphao, primary screen, biochemical, human proteins, multiplexed bead flow cytometry; Regulator of G-protein signaling 16 (Homo sapiens) + Guanine nucleotide-binding protein …; bead-based flow cytometry RGS16-Galphao binding, fluorescence; actives lie on both sides; binding response (% of control), % at 10 µM; actives 0.38% (n = 220,000); AID 1441, 2008;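 active = below 25% or above 175%, edge rows of some plates excepted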;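 also: Galphao activated by GDP with aluminum fluoride before binding; 100% = wells without compound and 0% = beads without RGS; some results beyond the cut were filed as inactive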
Target sequence (O15492 whole entry, looked up): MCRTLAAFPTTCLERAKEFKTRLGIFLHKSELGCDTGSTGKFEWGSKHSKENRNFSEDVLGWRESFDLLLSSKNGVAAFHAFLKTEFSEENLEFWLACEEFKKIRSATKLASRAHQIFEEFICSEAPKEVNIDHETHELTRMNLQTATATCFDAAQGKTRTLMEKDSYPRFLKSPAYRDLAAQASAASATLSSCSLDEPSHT
Target sequence (P09471 whole entry, looked up): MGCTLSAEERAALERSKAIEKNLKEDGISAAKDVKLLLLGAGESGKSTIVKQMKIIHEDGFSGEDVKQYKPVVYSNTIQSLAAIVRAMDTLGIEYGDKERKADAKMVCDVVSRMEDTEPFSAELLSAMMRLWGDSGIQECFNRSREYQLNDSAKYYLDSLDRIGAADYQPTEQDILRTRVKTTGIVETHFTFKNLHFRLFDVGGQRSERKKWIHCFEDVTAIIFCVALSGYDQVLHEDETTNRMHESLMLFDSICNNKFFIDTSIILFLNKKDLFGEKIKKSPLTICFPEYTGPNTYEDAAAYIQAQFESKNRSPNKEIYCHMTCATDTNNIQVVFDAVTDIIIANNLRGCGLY
INS promoter inh cell count = recorded beside INS promoter inh, whose call it bears; normalized cell count, %; measured here: cell count, toxicity; reference of the scale not given here;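 cells exposed to compound for 48 h; stained nuclei by imaging scaled within each plate; lower means fewer cells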
HSV replic up primary fold = also measured in HSV replic up; calls as there; fold increase; compound at 10 µM; measured here: primary screen fold increase 10 uM; tested in PC3 cells;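 GFP signal in the first replicate; 1 = infected wells without compound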
* hit, by the source's call; i = inactive; ? = inconclusive; / = no result given.

SMILES	GALR2 ag	PKD1 inh	INS promoter inh	HSV replic up	RGS16-Gao HTS	INS promoter inh cell count	HSV replic up primary fold
O=c1[nH]c2cc3c(cc2cc1CN(Cc1nnnn1C1CCCC1)C1CCCC1)OCCO3	-1.3	-4	/	i	84	/	1.1
O=[N+]([O-])c1ccc(O)c(C(C#Cc2ccccc2)N2CCOCC2)c1 (centres undefined)	/	/	/	i	93	/	0.86
COC(=O)Cn1c2[n+](c3ccccc31)CC(O)CS2 (centres undefined)	-0.1	-5	15	i	109	114	1
CCN(CC)CCCNC(=O)C1CCCN(c2nnc(N3CCCC3=O)s2)C1 (centres undefined)	-3.4	-8	-13	i	96	128	0.93
CCC(=O)Nc1cccc(NC(=O)c2cccc([N+](=O)[O-])c2C)c1	-1.0	-3	/	i	110	/	0.94
O=C(COC(=O)C1COc2ccccc2O1)Nc1cccc(S(=O)(=O)N2CCCCC2)c1 (centres undefined)	/	-4	40	i	108	79	0.95
CCc1cccc(NC(=O)CN(C)S(=O)(=O)c2cccs2)c1	/	-1	-11	i	100	134	0.98
COc1ccc(-c2nnc(SCC(=O)c3ccc[nH]3)o2)cc1	-3.2	5	8	i	87	46	0.99
OC1C2(Cc3ccccc3)CN3CCN(C2)CC1(Cc1ccccc1)C3 (centres undefined)	-0.5	-2	/	i	100	/	0.85
O=C(C1CCCN(S(=O)(=O)c2cccc3nonc23)C1)N1CCN(c2ccccc2Cl)CC1 (centres undefined)	-1.7	4	-94	i	111	116	0.8
Cc1csc(NC(=O)CN2C(=O)C3CC=CCC3C2=O)n1 (centres undefined)	-4.1	-13	30	i	104	110	1
N/C(=N\OC(=O)c1cccc(Cl)c1)c1ccccn1	-1.5	8	43	i	122	83	0.98
O=C(O)c1ccc(NCCc2ccc(Cl)cc2)c([N+](=O)[O-])c1	/	4	-25	i	103	91	0.91
CCCCCn1c(CN2CCN(C(=O)c3ccco3)CC2)nc2c1c(=O)n(C)c(=O)n2C	/	/	/	i	102	/	0.79
CCN(C(=O)Cn1c(=O)oc2ccccc21)C1CCS(=O)(=O)C1 (centres undefined)	-0.8	0	38	i	102	83	0.98
Cc1cccnc1NC(=O)c1c(O)c2cccc3c2n(c1=O)CCC3	-0.8	12	/	i	109	/	0.95
Cc1cc(Cl)c(OCCOCCN2CCCC(C)C2)c(Br)c1 (centres undefined)	/	4	/	i	103	/	0.99
O=C(CSc1nc(-c2ccco2)cc(C(F)(F)F)n1)N1CCN(c2ccc(Cl)cc2)CC1	-3.7	-10	42	i	105	132	1
CC1CCN(CCCNC(=O)C2CCN(S(=O)(=O)N3CCCCC3)CC2)CC1	-2.2	-4	-54	i	103	91	1.1
CC(C)N1CCN(Cc2cccn2-c2nccs2)CC1CCO (centres undefined)	/	-2	/	i	106	/	1.1
CCOC(=O)C1(CCOc2ccccc2)CCN(Cc2ccncc2)CC1	/	7	-21	i	101	78	0.94
Cc1occc1-c1nnc(SCC(=O)N(C)C)o1	-0.2	-2	25	i	94	95	1.2
CCN(CC)CC(=O)Nc1sc2c(c1C(=O)c1ccccc1OC)CCC2	/	-8	/	i	106	/	0.84
N#Cc1nc(Cc2cccc3ccccc23)oc1NCc1ccc(F)cc1	-0.4	0	/	i	97	/	1
Cc1cccc(Sc2ccc([N+](=O)[O-])cn2)c1	-0.8	-7	14	i	105	125	0.92

Entries of single compounds, looked up by structure. Order of values: GALR2 ag	PKD1 inh	INS promoter inh	HSV replic up	RGS16-Gao HTS	INS promoter inh cell count	HSV replic up primary fold
Listed for `N/C(=N\OC(=O)c1cccc(Cl)c1)c1ccccn1` = -1.5	8	43	i	122	83	0.98
Listed for `Cc1cc(Cl)c(OCCOCCN2CCCC(C)C2)c(Br)c1` (centres undefined) = /	4	/	i	103	/	0.99

Next section.
SMILES	GALR2 ag	PKD1 inh	INS promoter inh	HSV replic up	RGS16-Gao HTS	INS promoter inh cell count	HSV replic up primary fold
COc1ccccc1N1CCN(CC(=O)NCCc2ccc(S(N)(=O)=O)cc2)CC1	/	-4	-32	i	99	100	1
N#Cc1nc(-c2cccs2)oc1NCc1ccc2c(c1)OCO2	-0.9	-4	/	i	85	/	0.99
CC1=C(C(=O)Nc2cccnc2)C(c2ccccn2)n2nnnc2N1 (centres undefined)	-0.4	-5	/	i	106	/	0.84
COc1cc(OC)c(NC(=S)Nc2cc(Cl)cc(Cl)c2)cc1Cl	-1.9	-1	/	i	107	/	1.1
COCCN=c1scc(-c2cccs2)n1/N=C/c1ccc(O)c(O)c1O	-1.1	5	/	i	86	/	1.2
CC(C)(C)CN1CCNC(=O)C1CC(=O)N1CCN(c2ccccc2)CC1 (centres undefined)	/	/	/	i	102	/	0.9
O=C(O)c1ccc(NCc2nc3ccccc3n2CCOc2ccccc2Cl)cc1	/	-11	11	i	98	91	0.91
Cc1[nH]n2c(=O)c3c(nc2c1-c1cccc2ccccc12)CCC3	-3.9	8	8	i	100	135	0.93
CC(C)C1Nc2ccc(S(=O)(=O)N3CCOCC3)cc2NC1=O (centres undefined)	/	7	40	i	102	105	0.88
Cn1c(COc2ccc(Cl)cc2)nnc1SCC(=O)NC1CCCCC1	-1.9	-10	-5	i	/	103	1
O=C1c2ccccc2NC2(CCCC2)N1N=C1CCCC1	/	-6	/	i	98	/	0.85
Cc1ccsc1/C=N/N1CCN(C2c3ccccc3-c3ccccc32)CC1	-1.9	-7	3	i	87	60	1
Nc1nc(SCC(=O)c2cccs2)n[nH]1	/	7	/	i	98	/	0.96
Cc1ccc(CNC(=O)C2COc3ccccc3O2)cc1 (centres undefined)	/	-2	/	i	101	/	0.94
S=C(Nc1ccc2nsnc2c1)N1CCCCC1	-1.3	-3	22	i	2.5*	65	0.98
COc1cc(C(=O)NCCN2C(=O)S/C(=C\c3ccc(F)cc3)C2=O)ccc1OCC(=O)N1CCOCC1	/	/	/	i	103	/	1.2
COc1ccc(NC(=O)C(NS(=O)(=O)c2ccc3c(c2)CCCN3C(C)=O)C(C)C)c(OC)c1 (centres undefined)	-2.9	13	/	i	104	/	0.98
CC(/C=C/C(=O)c1ccc(C)cc1)=C\c1ccccc1	-2.8	1	/	/	103	/	/
Cc1ccc(S(=O)(=O)NCCOCCNS(=O)(=O)c2ccc(C)cc2)cc1	-1.4	5	/	i	100	/	0.94
COc1ccc(C(=O)Nc2ccccc2)cc1S(=O)(=O)Nc1cc(C)on1	-1.4	-7	67	i	97	107	0.95
CCOc1cc(/C=N/n2cnnc2)ccc1OS(=O)(=O)c1ccccc1	/	3	/	i	100	/	0.95
CCC(=O)Nc1nnc(C)s1	-4.3	-5	-81	i	100	83	0.93
O=C(c1ccco1)N1CCN(C(c2cccs2)c2sc3ncnn3c2O)CC1 (centres undefined)	-3.2	-1	/	i	103	/	0.96
O=C(Cc1ccc(Cl)cc1Cl)OCC(=O)N1CCN(C(=O)c2ccco2)CC1	/	-2	5	i	120	70	0.99
COc1ccc(S(=O)(=O)Nc2ccc(NC(C)=O)cc2)cc1	-1.2	-3	-51	i	108	78	0.97
COc1ccc(C(=O)c2no[n+]([O-])c2C(=O)c2ccc(OC)cc2)cc1	-1.0	5	18	i	99	69	0.91
COCCN(C(=O)c1csnn1)C(C(=O)NC(C)(C)C)c1cccc(OC)c1 (centres undefined)	-0.5	-9	5	i	102	74	0.87
O=c1cc(-c2c(F)c(F)c(F)c(F)c2F)oc2c(F)c(F)c(F)c(F)c12	-0.9	-6	/	i	94	/	0.4
O/N=C1\CCC\C1=C/c1ccco1	-0.9	-9	/	i	96	/	0.78
COc1ccccc1N1CCN(CCNC(=O)Nc2cccc(C)c2C)CC1	-1.2	10	-34	/	94	116	/
CCn1cc(Br)c(C(=O)NN)n1	-1.8	-1	3	i	110	131	0.84
COc1ccc(-n2nc(C(=O)NCC(=O)NCC3CCCO3)c3ccccc3c2=O)c(OC)c1 (centres undefined)	-0.8	-2	64	i	100	104	1
CSc1ccc(NC(=O)NCCN2CCc3ccccc3C2)cc1	-1.6	-10	35	i	99	101	1.1
O=C1c2ccccc2C(=O)c2c1cccc2N1CCN(Cc2ccccc2)CC1	0.6	3	/	i	102	/	0.67
C=C(C)C1CC=C(C)/C(=N/NC(=O)c2ccoc2C)C1 (centres undefined)	-0.6	-3	55	i	102	77	1.1
Cc1cc(C)n2nc(SCC(=O)c3cc(C)n(-c4cc(C)on4)c3C)nc2n1	-0.8	-3	/	i	101	/	1
COc1cc(NC(=O)c2ccccc2F)c(OC)cc1NC(=O)CN1CCOCC1	/	-2	/	i	105	/	0.91
CC(C)c1ccccc1-n1c(SCc2cc(=O)oc3ccc4ccccc4c23)nnc1-c1cccnc1	1.6	-11	/	i	101	/	1.1
Nc1nc(N2CCCCC2)c(C=O)c(N2CCCCC2)n1	/	-3	/	i	101	/	0.91
Cn1c(O)c(N=NC(=O)c2ccco2)c2ccccc21	/	-8	12	i	118	109	1
CCOC(=O)C1CCN(S(=O)(=O)c2cc(Br)cc3c2N(C(C)=O)C(C)C3)CC1 (centres undefined)	-1.9	-6	/	i	107	/	0.96
Cc1c([N+](=O)[O-])cc(C(=O)NCc2ccc(F)cc2)cc1[N+](=O)[O-]	/	3	/	i	106	/	1.1
CCN(CC(=O)NC(C)C)C(=O)Cc1ccc(C)c(C)c1	/	-2	/	i	101	/	0.94
COc1ccccc1C(=O)Oc1ccccc1C(=O)Nc1ccccc1	/	-2	/	i	104	/	1
CCNCC(O)COCC(O)CNCC (centres undefined)	-1.6	-9	27	i	103	161	0.69
O=C(/C=C/c1cccc([N+](=O)[O-])c1)N1CCOCC1	-0.3	-8	-5	i	98	97	0.95
O=c1[nH]c2cc(Br)cnc2nc1/C=C(\O)c1ccc(F)cc1	0.2	-3	-20	?	93	89	/
c1cc(-n2cnnn2)ccc1NC1=NCCC1	-1.5	10	/	i	102	/	0.97
COc1ccc(NC(=O)N(CCN2CCCC2)Cc2cc3cc(OC)c(OC)cc3[nH]c2=O)cc1	-1.1	3	-38	/	103	108	/
COc1ccc(/C(C)=N/NC(=O)Cn2nc([N+](=O)[O-])cc2C)cc1	/	/	/	i	93	/	1

4 compounds from above, reduced to RGS16-Gao HTS and PKD1 inh.
structure,RGS16-Gao HTS,PKD1 inh
CCNCC(O)COCC(O)CNCC (centres undefined),103,-9
O=C(/C=C/c1cccc([N+](=O)[O-])c1)N1CCOCC1,98,-8
O=c1[nH]c2cc(Br)cnc2nc1/C=C(\O)c1ccc(F)cc1,93,-3
c1cc(-n2cnnn2)ccc1NC1=NCCC1,102,10

Later entries
SMILES	GALR2 ag	PKD1 inh	INS promoter inh	HSV replic up	RGS16-Gao HTS	INS promoter inh cell count	HSV replic up primary fold
O=S(=O)(CCN1CCN(C(c2ccccc2)c2ccccc2)CC1)C(F)(F)F	-1.1	-21	/	i	88	/	0.7
Cc1c(CCO)c(=O)n(C)n1C(=O)c1ccc(Cl)cc1	-1.2	-8	-153	i	94	114	1
Cc1ccc(N2C(=O)c3n[nH]c(C)c3C2c2ccco2)cc1 (centres undefined)	-0.4	-3	28	i	97	175	0.94
CSc1nc(-c2ccccc2F)c(C#N)c(=O)n1C	/	1	-6	i	100	65	1
COc1ccc(CNC(=O)/C=C/c2ccc(OCCCF)cc2)cc1OC	-1.6	-10	27	i	98	85	0.91
CC(=O)Nc1ccc(S(=O)(=O)N2CCC(C(=O)O)CC2)cc1	/	3	6	i	104	137	0.96
CCOC(=O)c1sc(=S)n(-c2ccccc2)c1SC	-2.5	10	50	i	73	85	0.97
Cc1cc(C)nc(N(C#N)Cc2ccccc2Cl)n1	-1.7	4	/	i	97	/	1.1
Cc1cc(C)nc(SCCc2ccncc2)n1	-1.0	6	26	i	94	101	0.83
CCCN(CC1CC1)C(=S)Nc1ccc(Oc2ccccc2)cc1	-1.1	-9	/	i	149	/	1

RGS16-Gao HTS, what is marked active above
mol,GALR2 ag,PKD1 inh,RGS16-Gao HTS,HSV replic up primary fold
S=C(Nc1ccc2nsnc2c1)N1CCCCC1,-1.3,-3,2.5*,0.98

Source: PubChem
